Bioassay records (PubChem)
KCNQ2 pot: potentiators of rat KCNQ2 potassium channel. hit rate 0.54% among 310,000. B-score at 10 µM. Potassium voltage-gated channel subfamily KQT member 2 (Rattus norvegicus), O88943. CHO-K1 KCNQ2, FluxOR thallium flux fluorescence; hits give high values;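 active = fluorescence ratio B-score at least 3 SD of library B-scores, with initial fluorescence B-score within 3 SD, cut at about 5.3 in these data; same plate scores as AID 2156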;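 note: B-score of peak minus minimum over baseline fluorescence ratio after K+ and Tl+ stimulus; positive B-score means potentiation of KCNQ2 with more thallium influx and brighter signal; only the inactives scoring about 0 or higher are listed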
Target sequence (O88943 whole entry, looked up): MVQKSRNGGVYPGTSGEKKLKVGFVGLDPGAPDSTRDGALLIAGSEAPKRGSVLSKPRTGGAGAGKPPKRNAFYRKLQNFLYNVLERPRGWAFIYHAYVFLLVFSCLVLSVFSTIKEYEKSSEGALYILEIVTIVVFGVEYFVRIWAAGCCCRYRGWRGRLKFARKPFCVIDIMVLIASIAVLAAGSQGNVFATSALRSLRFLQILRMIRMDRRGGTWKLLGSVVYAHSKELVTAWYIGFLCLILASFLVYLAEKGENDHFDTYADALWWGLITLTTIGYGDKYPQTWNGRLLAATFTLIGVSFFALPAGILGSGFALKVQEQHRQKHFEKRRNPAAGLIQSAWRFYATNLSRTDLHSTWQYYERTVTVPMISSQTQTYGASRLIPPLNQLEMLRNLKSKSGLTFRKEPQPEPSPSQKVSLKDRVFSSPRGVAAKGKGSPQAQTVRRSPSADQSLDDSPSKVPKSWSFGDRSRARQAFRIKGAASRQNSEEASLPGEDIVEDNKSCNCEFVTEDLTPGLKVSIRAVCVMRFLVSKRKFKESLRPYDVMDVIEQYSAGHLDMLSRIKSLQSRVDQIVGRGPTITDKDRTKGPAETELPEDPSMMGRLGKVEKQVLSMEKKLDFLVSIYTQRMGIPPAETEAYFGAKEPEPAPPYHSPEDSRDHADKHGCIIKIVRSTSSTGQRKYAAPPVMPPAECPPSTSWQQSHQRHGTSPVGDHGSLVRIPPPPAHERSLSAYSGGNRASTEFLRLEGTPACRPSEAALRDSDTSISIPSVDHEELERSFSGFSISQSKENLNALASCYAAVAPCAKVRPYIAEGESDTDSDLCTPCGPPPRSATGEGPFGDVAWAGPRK
KCNQ2 pot baseline: second read-out of KCNQ2 pot, no call of its own (marks repeat the call); B-score; compound at 10 µM; measured here: initial fluorescence intensity artifact check;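 brightness before thallium and not channel activity; 0 = typical well and far values either way flag optical interference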
* hit, by the source's call; x = no result given. Not all compounds are listed (hit frequency here may not be typical).

SMILES | KCNQ2 pot | KCNQ2 pot baseline
C=CC(C)C(C(=O)c1ccccc1)N(C)C (stereo not given) | 0.01 | -0.09
Cc1ccc(N2C(=O)NC(=O)C(CCc3ccncc3)(Cc3cccc(Cl)c3Cl)C2=O)cc1 (stereo not given) | 0.17 | -0.24
O=C1c2ccccc2C(=O)N1Cc1nc2ccccc2c(=O)n1-c1cccnc1 | 0.3 | 0.45
CCNC(=O)NNC(=O)C1CC(c2cccnc2)=NO1 (stereo not given) | 0.19 | -0.45
N/C(=N\[N+](=O)[O-])N1CCN(C(=O)c2ccccn2)CC1 | 1.3 | -1.3
Cc1cc(C=C2C(=O)NC(=O)NC2=O)c(C)n1-c1ccncc1 | 1.3 | -0.31
COc1ccc(CC2c3cc(OC)c(OC)cc3CCN2C)cc1OC (stereo not given) | 1.1 | 0.27
Cc1cccc(OP(N)(=O)Oc2cccc(C)c2C)c1C | 2.3 | -0.04
COC(=O)C1=C(c2cccc(OC)c2OC)C[C@@H]2CC[C@H]1N2C(=O)N1CCC(C)CC1 | 0.12 | -0.83
COCCOC(=O)C1=C(C)OC(N)=C(C(=O)OC)C12C(=O)Nc1ccccc12 (stereo not given) | 1.2 | 1
CC/C(=N\Nc1ccccc1)c1c(O)n(C)c(=O)n(C)c1=O | 1.7 | 0.99
O=C(NC1CCCCC1)N1C[C@H]2C[C@@H](C1)c1cccc(=O)n1C2 | 0.65 | -0.2
CCCCn1c(O)c(C(C)=NCC2CCCO2)c(=O)[nH]c1=O (stereo not given) | 1.2 | 0.33
Cc1ccccc1CN1CCNCC1 | 0.55 | -0.27
CCOCCN1CCN(c2nnc3n2-c2ccc(Cl)cc2C(c2ccccc2Cl)=NC3)CC1 | 0.11 | 0.01
CCOC(=O)c1c(C)n(Cc2ccccc2)c2ccc(OCC(O)CNC(C)(C)C)cc12 (stereo not given) | 0.22 | -1.1
COc1cccc(CNCCc2ccc(F)cc2)c1 | 1.5 | 0.23
O=C1Nc2cc(C(=O)N3CCC4(CC3)OCCO4)ccc2S/C1=C\c1ccccc1 | 2.5 | 0.59
CN/C=C(/Cl)P(=O)(OC(C)C)OC(C)C | 1.7 | -1.4
CN(C)CCN=Cc1c(O)n(-c2cccc3ccccc23)c(=O)[nH]c1=O | 0.01 | 0.1
CC(=O)OC1(c2ccccc2)CCN(C)C(C)C1C (stereo not given) | 0.15 | -0.9
COc1ccc(C(=O)CC2(CC(=O)c3ccc(OC)cc3)C(=O)N(C)C(=O)N(C)C2=O)cc1 | 1.1 | -1.8
COP(=O)(NS(=O)(=O)c1ccccc1)OC | 1.3 | -0.62
CCCCn1c(N)c(C(=O)NCCN2CCOCC2)c2nc3ccccc3nc21 | 0.23 | 0.07
CC(=NCc1ccc2c(c1)OCO2)c1c(O)[nH]c(=O)[nH]c1=O | 0.63 | 0.01
NCCc1ccc(O)cc1 | 1.4 | -1.2
Cn1c(C(=O)N2CCC(C(=O)N3CCC4(CC3)OCCO4)CC2)cc2sccc21 | 1.1 | 0.32
CCC(=NCCc1c[nH]c2ccccc12)c1c(O)n(-c2ccc(C)cc2)c(=O)[nH]c1=O | 1.8 | -0.01
COc1ccc(-c2cc(C(F)(F)F)n3nc(C(=O)N4CCC5(CC4)OCCO5)cc3n2)cc1OC | 0.12 | -0.48
C=CCN1C(=O)NC(=O)/C(=C/C=C/c2ccccc2)C1=O | 3.1 | -2.3
c1cncc(CNC2=NCCCCC2)c1 | 0.81 | 0.11
C=CCn1c(O)c(C(C)=Nc2ccc(C(=O)O)cc2)c(=O)[nH]c1=O | 0.92 | 0.01
CCOc1ccc(N2C(=O)/C(=C/c3ccco3)C(=O)NC2=S)cc1 | 2 | 0.11
Fc1ccccc1CNCCc1c[nH]c2ccccc12 | 0.04 | -0.9
O=C(Cn1cnc2sc3c(c2c1=O)CCCC3)NCCCC(=O)N1CCC2(CC1)OCCO2 | 1.3 | 0.69
CCOC(=O)C1CN(C)CCC1=O (stereo not given) | 0.21 | -0.27
CC[C@]12C=CCN3CCC4(c5cc(Br)c(OC)cc5N(C)C4[C@@](O)(C(=O)OC)[C@@H]1OC(C)=O)C32 (stereo not given in full) | 1.4 | -2.8
O=C1c2ccccc2C2(c3ccc(Cl)cc3)NCCN12 (stereo not given) | 0.29 | 0.16
CN1C(=O)C(=Cc2cn(CC(=O)N3CCCCC3)c3ccccc23)C(=O)N(C)C1=O | 1 | -0.55
CCCc1[nH]nc2c1C1(C(=O)N(Cc3ccccc3)c3ccccc31)C(C(=O)OC)=C(N)O2 (stereo not given) | 1.6 | 0.86
Cc1ccc(NC(=O)c2cn(CCC#N)nc2-c2ccc3c(c2)OCCO3)c([N+](=O)[O-])c1 | 0.45 | 0.69
N=c1c[n+](C2CCCCC2)[n-]o1 | 2.1 | -0.48
O=C(N=Nc1c(O)[nH]c(=O)[nH]c1=O)C1COc2cc3ccccc3cc2O1 (stereo not given) | 0.75 | -1.5
COc1cc(N)c(Cl)cc1C(=O)NC1CN2CCC1CC2 (stereo not given) | 0.75 | 0.96
O=C(O)c1ccccc1-c1ccc(C=C2C(=O)N(c3ccccc3)C(=S)N(c3ccccc3)C2=O)o1 | 1.7 | -0.12
CCOC(=O)c1cccc(NC(=O)c2c(O)[nH]c(=O)[nH]c2=O)c1 | 0.8 | -0.08
CCC(C(=O)N1CCC2(CC1)OCCO2)n1c2ccccc2c2nc(=O)cc(C)n21 (stereo not given) | 0.3 | 3.1
Clc1cnc(Oc2ccc(Oc3ncc(Cl)cc3Cl)cc2)c(Cl)c1 | -5.6 | x
O=C(COc1ccc2ccccc2c1)N1CCN(C2CCN(Cc3ccccc3)CC2)CC1 | 0.41 | 1.8
CC1CC(OC(=O)c2ccccc2)CC(C)N1C (stereo not given) | 0.67 | -0.11
O=c1c2ccccc2nc(-c2cccs2)n1-c1cnccn1 | 0.04 | -0.1
Cc1ccc(CN2CC3CC(C2)c2cccc(=O)n2C3)cc1 (stereo not given) | 0.63 | -0.37
CC(NCC#Cc1ccccc1)C(O)c1ccccc1 (stereo not given) | 0.01 | -1.7
Cn1c(O)c(C=NCCc2c[nH]c3ccccc23)c(=O)n(C)c1=O | 2.1 | -0.78
Cc1cc(N2CCOCC2)nc2ccc(NC(=O)CCC(=O)N3CCC4(CC3)OCCO4)cc12 | 0.11 | -0.54
Cc1cc(-c2ccccc2)cc(C)[n+]1Cc1ccccc1 | 1.8 | 0.39
O=c1c2ccccc2nc(-c2ccoc2)n1-c1ccccc1Cl | 0.3 | 0.62
CC(=NCc1ccc2c(c1)OCO2)c1c(O)n(-c2ccc(C)cc2)c(=O)[nH]c1=O | 1.2 | -1.1
CNC(=O)N(C)c1ccc(C(O)(C(=O)OC)C(F)(F)F)cc1 (stereo not given) | 0.21 | -0.43
O=P(CCl)(Nc1ccccc1)C(Cl)(Cl)Cl (stereo not given) | 0.77 | 1.4
(listing goes on)
SMILES | KCNQ2 pot | KCNQ2 pot baseline
Cc1cc(/C=C2\C(=O)NC(=O)N(C)C2=O)c(C)n1-c1ccc2c(c1)OCO2 | 0.81 | 0.56
CC(C)OP(=O)(Oc1ccc(C(O)C(Cl)(Cl)Cl)cc1)OC(C)C (stereo not given) | 0.69 | -1.1
COc1ccc(-c2cc(=Nc3cccc(C(=O)O)c3)c3cc(C)ccc3o2)cc1 | 0.65 | 0.2
CCOc1cc2c(cc1OCC)-n1cccc1C(c1cccc(F)c1F)NC2 (stereo not given) | 0.44 | -0.7
CC(C)CCNC(=O)c1cc(C(=O)c2cc(F)ccc2O)cn(CCC(C)C)c1=O | 0.7 | -1.7
CN1CC(C(=O)c2ccccc2)C(C(=O)c2ccccc2)C1 (stereo not given) | 0.64 | -1.1
CCOC(=O)C1=C(N)OC2=C(C(=O)CC(C)(C)C2)C12C(=O)Nc1ccccc12 (stereo not given) | 0.47 | -0.35
O=C(CCCC1=NS(=O)(=O)c2ccccc2N1)N1CCC2(CC1)OCCO2 | 1.8 | 0.66
O=C1NC(=O)N(CC2CCCO2)C(=O)/C1=C/c1cccs1 (stereo not given) | 0.02 | -0.01
O=C(Nc1ccccc1)c1c(O)[nH]c(=O)[nH]c1=O | 2 | -0.55
CC1(C)C(C(=O)N2CCN(c3ccc(Cl)cc3)CC2)C1(C)C | 0.08 | 0.88
CCCCn1c(O)c(C(C)=Nc2cccc(C(=O)O)c2)c(=O)[nH]c1=O | 0.55 | 0.32
CCC(C)n1c(O)c(C=NCC2CCCO2)c(=O)[nH]c1=S (stereo not given) | 0.7 | 0.5
COc1ccc(CCNCc2ccc(OC)c(OC)c2OC)cc1 | 0.18 | -2.1
O=[N+]([O-])c1ccc(N2CCOCC2)c2ccncc12 | 1.8 | -0.79
COc1cc2c(cc1OC)-c1c(OC)c(OC)cc3c1[C@H](C2)N(C)CC3 | 0.08 | 0
COc1ccc(-n2c(CN3CCOCC3)nc3ccccc3c2=O)c(OC)c1 | 0.26 | 1.7
CC[C@H]1CN(C)C[C@@]2(C(=O)OC)Cc3c([nH]c4ccccc34)C(=O)C[C@@H]12 | 1.4 | -0.02
CCOC(=O)c1c(C)n(Cc2ccc(F)cc2)c2ccc(O)cc12 | 0.53 | -0.61
COc1ccccc1-n1c(O)c(/C=N/NC(=S)Nc2ccccc2)c(=O)[nH]c1=S | 0.25 | 0.84
CCCCCCN=Cc1c(O)n(C)c(=O)n(C)c1=O | 1.2 | -0.78
C/C=C1/CN2[C@@H]3C4CO[C@@H]3c3c([nH]c5cc(OC)ccc35)[C@@H]2CC14 (stereo not given in full) | 0.22 | -0.01
CC1C(c2cccs2)=[N+]([O-])C(C)(C(=O)c2cccs2)N1O (stereo not given) | 1.1 | -0.08
CC(=O)c1ccc(OCC(=O)N2CCCC(N3CCN(c4ccccc4C)CC3)C2)cc1 (stereo not given) | 0.29 | -0.09
COC(=O)C1C(O)C(C)C(O)C(C)/C=C\C=C(/C)C(=O)Nc2c(C)c(OC(C)=O)c3c(c2O)C(=O)C(C)=C2OCOC(=C23)/C(C)=C/C(C)(O)C(O)C(C)C1O (stereo not given) | 0.05 | -1
COc1ccc(S(=O)(=O)NC(CC(=O)N2CCC3(CC2)OCCO3)C(C)C)cc1 (stereo not given) | 0.61 | -0.47
C=C1CC[C@@]2(O)[C@H]3Cc4ccc(O)c5c4[C@@]2(CCN3CC2CC2)[C@H]1O5 | 1.5 | 0.62
COC(=O)C1=C(c2cccc(OC)c2OC)C[C@@H]2CC[C@H]1N2C(=O)NC1CCCCC1 | 0.07 | -1.7
CC1=C(C(=O)OC(C)C)[C@]2(C(=O)N(CC(N)=O)c3ccccc32)C(C#N)=C(N)O1 | 1.6 | -0.43
O=c1[nH]c(=O)n(CCc2ccc(F)cc2)c(O)c1C=NCCCn1ccnc1 | 1 | 0.92
N[C@@H](Cc1cc(Br)c(O)c(Br)c1)C(=O)O | 1.4 | -0.16

By substructure, those above with a carbonyl joined to an NH by a bond outside any ring (13)
SMILES | KCNQ2 pot | KCNQ2 pot baseline
CCNC(=O)NNC(=O)C1CC(c2cccnc2)=NO1 (stereo not given) | 0.19 | -0.45
O=C(NC1CCCCC1)N1C[C@H]2C[C@@H](C1)c1cccc(=O)n1C2 | 0.65 | -0.2
CCCCn1c(N)c(C(=O)NCCN2CCOCC2)c2nc3ccccc3nc21 | 0.23 | 0.07
O=C(Cn1cnc2sc3c(c2c1=O)CCCC3)NCCCC(=O)N1CCC2(CC1)OCCO2 | 1.3 | 0.69
Cc1ccc(NC(=O)c2cn(CCC#N)nc2-c2ccc3c(c2)OCCO3)c([N+](=O)[O-])c1 | 0.45 | 0.69
COc1cc(N)c(Cl)cc1C(=O)NC1CN2CCC1CC2 (stereo not given) | 0.75 | 0.96
CCOC(=O)c1cccc(NC(=O)c2c(O)[nH]c(=O)[nH]c2=O)c1 | 0.8 | -0.08
Cc1cc(N2CCOCC2)nc2ccc(NC(=O)CCC(=O)N3CCC4(CC3)OCCO4)cc12 | 0.11 | -0.54
CNC(=O)N(C)c1ccc(C(O)(C(=O)OC)C(F)(F)F)cc1 (stereo not given) | 0.21 | -0.43
CC(C)CCNC(=O)c1cc(C(=O)c2cc(F)ccc2O)cn(CCC(C)C)c1=O | 0.7 | -1.7
O=C(Nc1ccccc1)c1c(O)[nH]c(=O)[nH]c1=O | 2 | -0.55
COC(=O)C1=C(c2cccc(OC)c2OC)C[C@@H]2CC[C@H]1N2C(=O)NC1CCCCC1 | 0.07 | -1.7
CC1=C(C(=O)OC(C)C)[C@]2(C(=O)N(CC(N)=O)c3ccccc32)C(C#N)=C(N)O1 | 1.6 | -0.43

One compound at a time, as listed above:
C=C1CC[C@@]2(O)[C@H]3Cc4ccc(O)c5c4[C@@]2(CCN3CC2CC2)[C@H]1O5 is entered as KCNQ2 pot: 1.5; KCNQ2 pot baseline: 0.62
COc1ccc(S(=O)(=O)NC(CC(=O)N2CCC3(CC2)OCCO3)C(C)C)cc1 (stereo not given) is entered as KCNQ2 pot: 0.61; KCNQ2 pot baseline: -0.47
